Assay outcomes deposited in PubChem by National Center for Advancing Translational Sciences (NCATS).
ClpP mod = qHTS Assay for Activators of ClpP; ATP-dependent Clp protease proteolytic subunit (Bacillus subtilis (strain 168)), P80244; purified B. subtilis ClpP, FRET peptide cleavage, 20 min; Potency, µM (highest dose often 57.5 µM), for inactives: at the highest dose activity change, negative = active; 1.9% of 340,000 active; active = well fitted falling curve with a large enough effect; inconclusive = small, poorly fitted or top-dose-only effect; inactive = no such curve, though single readings can be large or run the other way; further: potency means the concentration at half of the fitted maximal effect; the source files actives as falling curves though it sought activators and does not explain the sign; nearly all actives have a fitted effect of over 65% in size; many hits overshoot -100%
Target sequence (P80244 whole entry, looked up): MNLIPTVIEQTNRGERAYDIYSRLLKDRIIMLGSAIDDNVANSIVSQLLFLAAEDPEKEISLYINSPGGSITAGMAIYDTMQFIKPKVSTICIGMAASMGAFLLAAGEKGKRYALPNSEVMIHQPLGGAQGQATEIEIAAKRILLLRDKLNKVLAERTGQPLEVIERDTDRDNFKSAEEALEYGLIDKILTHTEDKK
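FRET quenching reversal measured ClpP activation: 10 microg/mL B. subtilis ClpP at pH 8 with the FRET-FV decapeptide, read at 430 nm after 320 nm excitation. The 20-min minus 0-min signal was scaled between DMSO/no-enzyme wells and ADEP (5.8 microM final).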
D2 potentiator = human D2 receptor positive allosteric modulation | P14416 | DiscoveRx D2 beta-arrestin cells, luminescence, 90 min; 100% = 57 uM dopamine signal | potentiation, % (concentration not given with the values) | 0.23% of 360,000 active | AID 624464; active = potentiation of 50% or more; inconclusive = 30% to 50%; inactive = 30% or less;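 further: compound concentration not given in the record; tested on top of an EC20 dose of dopamine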
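D2 cells co-treated with compound plus 50 nM dopamine (EC20) for 90 min at 37 deg C to detect potentiation. Beta-arrestin recruitment was read as enzyme-fragment luminescence after 1 h at ambient temperature. Full response was set by 57 uM dopamine.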
gsp antagonist = antagonists of gsp mutant (McCune-Albright syndrome); gsp-mutant cells, cAMP HTRF, 30 min; control for the full effect not named in the record; Potency, µM (titrated, usually from 76.9 µM), for inactives: at the highest dose activity change, negative = inhibition, usual class: inhibitors; 0.4% of 340,000 active; AID 624288; active = falling curve of any shape with a large fitted effect; inconclusive = falling curve, mostly with a smaller effect; inactive = flat or rising curve; cell line not stated here;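 further: intracellular cAMP measured with PDE inhibitor Ro 20-1724 present during compound exposure; potency means the concentration at half of the fitted maximal effect; on the % scale 0 is the no-effect control and ±100 the full control effect; nearly all actives have a fitted effect of over 65% in size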
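Cells in G418 medium, seeded 16-24 h, 37C; buffer exchange to DPBS + 1 mM CaCl2, 0.5 mM MgCl2, 0.05% BSA; cpds in DMSO + […] (300 uM stock), 30 min 37C; HTRF cAMP detection.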
Sfp PPTase inh = blocks B. subtilis Sfp PPTase activity | Q9F4F7 | Biochemical Sfp PPTase activity, qHTS | AID 1490 | Potency, µM, for the others: max response, negative = inhibition, most hits filed as inhibitors | 3.5% of 310,000 active; active means well fitted inhibition curve with a large enough effect; inconclusive means small, poorly fitted or top-dose-only effect, or another doubt; inactive means no such curve, though single readings can be large or run the other way;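 further: the enzyme is Sfp with the accession as filed and its product quenches rhodamine fluorescence; potency means the concentration at half of the fitted maximal effect; 0% = enzyme reaction without inhibitor and -100% = no enzyme wells; top concentration of the series not given in the record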
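Fluorescence-quenching assay: 15 nM Sfp-PPTase preincubated 15 min at room temperature with compound, then 5 uM rhodamine-CoA and 12.5 uM BHQ-2-labelled YbbR peptide added. Fluorescence (ex 525/em 598 nm) read at start and after 30 min; difference gives rate.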
gsp agonist = activates gsp, the McCune-Albright syndrome mutation; gsp mutant cells, cAMP HTRF, 30 min; control for the full effect not named in the record; Potency, µM (doses to about 76.9 µM), without a hit: top-dose activation (cAMP increase), usual class: activators; 0.13% of 340,000 active; AID 624287; active = well fitted activation curve with a large enough effect; inconclusive = small, poorly fitted or top-dose-only effect, or another doubt; inactive = no such curve, though single readings can be large or run the other way; cell line not stated here;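 further: phosphodiesterase inhibitor Ro 20-1724 added with compounds to block cAMP breakdown; potency means the concentration at half of the fitted maximal effect; nearly all actives have a fitted effect of over 60% in size; about a fifth of the inactives were tested at one dose only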
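Cells in DMEM/10% FBS with G418 were pretreated with compounds in DMSO plus […] (300 uM stock) for 30 min at 37C. cAMP was measured by HTRF (cAMP-d2 plus anti-cAMP antibody-K) after 30 min at room temperature.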
Menin-MLL FL inh = menin-MLL binding inhibition, fluorescein peptide; Fluorescence polarization, fluorescein-MLL peptide displacement from menin; FP activity change, % at 61.4 µM; 290,000 tested, under 10 active; inconclusive = falling polarisation curve, or a change in total fluorescence; inactive = total fluorescence flat and polarisation flat or rising; no compound was filed as active; the % refers to the polarisation; negative = inhibition;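 further: % of control where 0% means no effect; inhibitors lower the polarisation; unlabelled MLL peptide was the positive control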
TRPV1 PAM = enhances activation of the human vanilloid receptor TRPV1; AID 540277; Q8NER1; 0.02% of 320,000 active; potentiation, % at 8.33 µM; TRPV1-expressing cells, Fluo-8 calcium influx, capsaicin EC20 potentiation; host cell line not named in the record; control for the full effect not named in the record; active means potentiation above 80%; inconclusive means 30% to 80%; inactive means below 30%; further: 0% is about no effect
Target sequence (Q8NER1 whole entry, looked up): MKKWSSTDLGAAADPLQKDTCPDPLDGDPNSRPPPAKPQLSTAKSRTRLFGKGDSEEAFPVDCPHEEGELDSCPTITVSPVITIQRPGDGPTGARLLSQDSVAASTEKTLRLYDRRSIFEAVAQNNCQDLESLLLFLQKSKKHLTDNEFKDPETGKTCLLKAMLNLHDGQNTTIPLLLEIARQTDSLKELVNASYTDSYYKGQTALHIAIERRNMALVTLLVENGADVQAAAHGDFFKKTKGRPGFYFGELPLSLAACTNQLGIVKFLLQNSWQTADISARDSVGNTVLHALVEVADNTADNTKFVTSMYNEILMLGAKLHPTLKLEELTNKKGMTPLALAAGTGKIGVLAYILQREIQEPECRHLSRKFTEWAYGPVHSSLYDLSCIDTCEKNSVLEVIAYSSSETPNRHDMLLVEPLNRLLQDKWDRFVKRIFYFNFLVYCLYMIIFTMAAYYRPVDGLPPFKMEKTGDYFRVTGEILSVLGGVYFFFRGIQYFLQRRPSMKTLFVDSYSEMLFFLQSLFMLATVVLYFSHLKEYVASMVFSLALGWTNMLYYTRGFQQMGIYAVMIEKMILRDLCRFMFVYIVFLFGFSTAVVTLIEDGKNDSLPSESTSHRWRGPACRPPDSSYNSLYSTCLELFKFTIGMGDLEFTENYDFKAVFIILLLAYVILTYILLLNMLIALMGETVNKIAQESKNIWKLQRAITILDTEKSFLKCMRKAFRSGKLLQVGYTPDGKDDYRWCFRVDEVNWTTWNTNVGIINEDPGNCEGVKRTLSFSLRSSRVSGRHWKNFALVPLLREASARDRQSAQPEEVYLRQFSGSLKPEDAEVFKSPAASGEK
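Fluo-8 calcium influx in TRPV1-expressing cells, kinetic read (ex 480/em 520 nm). Compound added and read 3 min for agonist activity, followed by capsaicin at EC20 final and 2 min further read for enhancement.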
Numbers without * were called inactive; ? = inconclusive; / = no result given; [ ] = dose if it differs, or a comment. Not a hit list (roughly 5.1% active in at least one column).

compound	ClpP mod	D2 potentiator	gsp antagonist	Sfp PPTase inh	gsp agonist	Menin-MLL FL inh	TRPV1 PAM
COc1ccc2ccccc2c1CNCCCN1CCOCC1	/	-9	17%	15%	0%[15.4 µM]	-6.8	13
CC1CCCCN1C(=O)c1cc(Cl)ccc1[N+](=O)[O-] (stereo not given)	-3.5%	21	8%	-4%	23%	1.0	0
CCC(CC)C(=O)N(c1ccc(F)cc1)C1C=CS(=O)(=O)C1 (stereo not given)	-1.3%	-7	-10%	5%	25%	-4.4	4
O=C(COC(=O)CSc1ccc(Br)cc1)NCc1ccco1	0.1%	4	8%	/	-7%[15.4 µM]	/	-18
O=C(CO/N=C/c1ccc(OC(F)F)cc1)NC1CCCCCC1	-2.4%	-12	-10%	-1%	18%[15.4 µM]	-5.6	-3
Cn1c(NNC(=O)/C=C/c2ccc3c(c2)OCO3)cc(=O)n(C)c1=O	3.5%	-11	-6%	-7%	23%	-3.2	10
CCCc1cnc(N2CCN(C(=S)NC)CC2)nc1	18%	2	7%	9%	-1%[15.4 µM]	-0.2	-16
C[C@H](CO)N1C[C@H](C)[C@@H](CN(C)C(=O)Nc2ccc3c(c2)OCO3)Oc2ccc(NS(=O)(=O)c3cn(C)cn3)cc2C1=O	-7.1%	-2	3%	/	/	/	/
COc1ccc(-c2cc(C(F)(F)F)n3nc(N)nc3n2)cc1	47%	-2	9%	5%	21%	-0.7	1
Cc1ccc(-c2csc(=Nc3cccnc3)n2CCCN2CCCC2=O)cc1C	-2.0%	-39	-4%	-5%	3%	0.3	0
Cc1ccc(NC(=S)Nc2cc(C)on2)cc1	/	2	10%	1%	34%	2.5	9
COc1ccccc1C(=O)NCC(=O)NCC1(N2CCCCC2)CCCCC1	-2.1%	-13	11%	/	-20%	/	1
O=C(COC(=O)/C=C/c1ccc(Br)o1)NC1CCCCC1	-3.7%	-12	8%	/	9%	/	-11
O=C(O)c1nccnc1C(=O)Nc1ccc(Cl)cn1	/	-6	9%	11%	17%[15.4 µM]	-2.7	-12
CSc1nc2ccc(S(=O)(=O)N3CCCCC3)cc2s1	-2.0%	-19	0%	35%[activator]	5%	-0.1	-29
CC(=O)Nc1ccc(/C=N/Nc2nc3ccccc3[nH]2)cc1	-8.0%	-6	-17%	10µM*	-13%	-2.1	2
CCCCCC/C(C)=C1/SC(=S)NC1=O	-1.5%	4	-5%	3%	-20%	?	-6
Cc1ccc(C2CC(=O)C(C=NCCN3CCN(CC(=O)Nc4cc(C)cc(C)c4)CC3)=C(O)C2)cc1 (stereo not given)	-0.6%	-7	-14%	6%	-4%	-5.9	-2
Clc1ccccc1OCCn1nnc2ccccc21	-0.2%	-11	-6%	2%	27%[15.4 µM]	-1.9	5
CC(=O)Oc1ccc(C23c4ccccc4C2(OC(C)=O)c2cc(OC(C)=O)ccc23)cc1 (stereo not given)	/	14	-5%	/	7%	/	/
O=C(NC1CCCCC1)C(=S)N1CCCC1	/	3	1%	14%	25%	-1.1	3
Clc1ccc(-c2nc3ccc(Br)cn3c2Cc2ccccc2)cc1	-4.7%	0	/	/	?	/	/
COC(=O)C(O)(CC(=O)Nc1ccc(C)c(F)c1)C(F)(F)F (stereo not given)	0.9%	-9	6%	24%	1%	-3.9	7
CCCCOC(=O)c1ccc(NC(=O)C(=O)NCCN(C)C)cc1	-0.1%	-17	11%	10%	-4%	0.3	-7
N#Cc1ccc(/C=C/C(=O)c2ccc3c(c2)OCO3)cc1	2.1%	26	-5%	5%	7%	0.3	-8
CCCCNC(=O)C1CCCNC1=O (stereo not given)	-2.1%	3	-1%	14%	8%	-0.1	13
CC(Cc1cccs1)NC(=O)CCCn1nnnc1CN1CCOCC1 (stereo not given)	0.5%	14	0%	19%	-7%	/	-1
CCOc1cccc(N(C(=O)CNC(=O)c2ccco2)C(C(=O)NCC2CCCO2)c2ccccc2)c1 (stereo not given)	/	5	1%	-1%	8%[15.4 µM]	/	0
Cc1cc(C)c2c(n1)nn1c(C)c(CCC(=O)NCc3ccco3)c(C)nc21	4.2%	-4	-12%	?	30%	1.4	-7
C=CCOc1ccccc1/C=c1\sc2nc(-c3oc4ccccc4c3C)nn2c1=O	-0.3%	-5	0%	/	-7%	/	/
Cc1ccc(S(=O)(=O)N2CCOCC2)cc1NC(=O)COC(=O)c1cccc(Cl)c1Cl	1.4%	-12	-15%	/	15%	/	/
O=C(NCCN1CCOCC1)c1cccc(Br)c1	/	-6	4%	/	?	/	/
Cc1ccc(C)c(N2CCN(C(=O)c3ccc(Cn4c(=O)[nH]c5ccccc5c4=O)cc3)CC2)c1	-17%	5	-18%	-3%	-22%	6.4	5
CC(C)(C)c1ccc(C2=NC(=O)C(CC(=O)O)S2)cc1 (stereo not given)	/	-30	6%	50µM*	-6%[15.4 µM]	3.3	-22
COC(=O)c1ccccc1NC(=S)NC(=O)COc1ccccc1	-0.7%	-1	3%	-10%	-36%	0.2	-16
O=C(Nc1cccc(S(=O)(=O)Nc2ccc(Cl)cc2)c1)c1ccc2c(c1)OCCO2	/	-2	35µM*	17%	3%	4.8	?
COc1ccc(OC)c(N(CC(=O)NCCSc2ccccc2)S(C)(=O)=O)c1	0.8%	8	-15%	8%	-14%	5.3	3
Cc1cc(=O)c2n(Cc3ccc(Cl)cc3)nc[n+]2[nH]1	-2.6%	13	0%	13%	-36%[inhibitor]	1.6	7
Cc1cc(Cl)ccc1NC(=S)N1CCC(C(N)=O)(N2CCCCC2)CC1	1.1%	-8	6%	-6%	1%	3.9	3
O=C(CSc1nc2ncccc2[nH]1)c1ccc2c(c1)OCO2	0.5%	-12	-3%	11%	14%	1.1	5
O=C(NCc1nnc(SCC(=O)N2CCCC2)o1)c1cccc(C(F)(F)F)c1	-14%	-2	-1%	9%	-49%[inhibitor]	/	-2
Nc1nnc(CC(=O)N/N=C\c2cc([N+](=O)[O-])ccc2O)s1	/	-5	-4%	4%	?	1.8	3
N=C(N)SCc1nc2ccccc2c(=O)n1-c1ccccc1Cl	?	-5	0%	-51%	?	4.2	-14
O=C(NCCCO)C(=O)NCc1ccccn1	/	5	11%	?	6%[15.4 µM]	0.7	-3
O=C(NCCc1ccc(C(F)(F)F)cc1)C1COc2ccccc2O1 (stereo not given)	/	-2	11%	7%	-11%[15.4 µM]	-4.0	-17
Clc1ccc(C2=CSC3=Nc4cccc5cccc(c45)N23)cc1	-0.2%	23	-6%	-14%	-5%	-1.1	-5
CN(C)c1ccc(CNC23CN4CN(CN(C4)C2)C3)cc1	-3.9%	-2	-2%	18%	-2%	3.3	5
COc1ccc(-c2nnnn2C(C)C)cc1S(=O)(=O)Nc1ccccc1	-0.4%	-13	-7%	9%	0%	0.0	-17
O=Nc1c(-c2ccccc2)n(O)[n+]([O-])c1-c1ccccc1	0.6%	-1	/	/	1%	/	/
O=C(/C=C/c1ccc(S(=O)(=O)N2CCOCC2)cc1)Nc1cc(F)ccc1F	/	-6	?	/	?	/	/
Cc1cc2nc3n(c2cc1C)CC1CC(C(=O)NCc2cccc(C(F)(F)F)c2)N(C)C31 (stereo not given)	1.8%	-17	0%	14%	/	0.5	13
Cc1ccc(N2CC(C(=O)NNC(=O)c3ccc(F)cc3)CC2=O)cc1 (stereo not given)	-1.0%	-1	0%	/	-33%[inhibitor]	/	-2
Cc1cc(C(=O)Nc2cccc3ccccc23)co1	-0.4%	13	-4%	-4%	-15%	/	12
O=[N+]([O-])c1ccc(/C=N/N=C/c2ccc([N+](=O)[O-])o2)o1	-2.1%	4	?	3%	8%[15.4 µM]	8.6	-8
Nc1cccc2cnccc12	-0.5%	18	-6%	8%	-22%	0.9	-15
O=C(CCCN1C(=O)c2ccccc2C1=O)Nc1nc2ccccc2[nH]1	/	-3	-4%	16%	9%[15.4 µM]	0.1	-12
O=c1cc(O)c(-c2ccccc2Cl)c(Cl)[nH]1	0.2%	-5	-21%	89µM*	-46%[inhibitor]	0.9	13
CC(C(=O)N/N=C/c1ccc(N(C)C)c(Br)c1)N(c1ccccc1)S(C)(=O)=O (stereo not given)	-3.8%	-5	-7%	10%	-20%	-0.3	-9
O=[N+]([O-])c1ccc(Sc2ncc3ccccn23)nc1	-0.1%	-11	5%	9%	12%	1.1	1
Cc1ccc(C)c(N2C(=O)CC(N3CCN(Cc4ccc5c(c4)OCO5)CC3)C2=O)c1 (stereo not given)	0.1%	-19	-2%	8%	-1%	-1.5	1
CCOc1ccc(-n2c(SCC(=O)c3c(N)n(C)c(=O)n(C)c3=O)nnc2-c2cccnc2)cc1	-3.5%	-10	11%	8%	-1%[15.4 µM]	1.8	1

Record cards, as listed above. Values in the order: ClpP mod | D2 potentiator | gsp antagonist | Sfp PPTase inh | gsp agonist | Menin-MLL FL inh | TRPV1 PAM
O=C(/C=C/c1ccc(S(=O)(=O)N2CCOCC2)cc1)Nc1cc(F)ccc1F in the list: / | -6 | ? | / | ? | / | /
Nc1nnc(CC(=O)N/N=C\c2cc([N+](=O)[O-])ccc2O)s1 in the list: / | -5 | -4% | 4% | ? | 1.8 | 3
Cc1ccc(C)c(N2C(=O)CC(N3CCN(Cc4ccc5c(c4)OCO5)CC3)C2=O)c1 (stereo not given) in the list: 0.1% | -19 | -2% | 8% | -1% | -1.5 | 1
O=[N+]([O-])c1ccc(/C=N/N=C/c2ccc([N+](=O)[O-])o2)o1 in the list: -2.1% | 4 | ? | 3% | 8%[15.4 µM] | 8.6 | -8
